Bioassay records from PubChem.
Vaccinia inh: blocks a specific stage of Vaccinia orthopoxvirus infection; 0.01% of 89,000 active; Vaccinia-infected cells, mCherry/Venus stage reporter fluorescence; active compounds read low; some inactives read as strong as hits; activity change (mCherry), % (concentration not given with the values); AID 1053133;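 active = mCherry past -33% and 40 or more points under the early reporter, replicates agreeing; inconclusive = past -33% without that gap or agreement; tested in A549 cells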;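 note: scaled between vehicle wells and reference inhibitor wells; 23 nL library stock went into each well; one replicate is shown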
Vaccinia inh Venus: also measured in Vaccinia inh; calls as there; activity change (Venus), %; measured here: Venus reporter, other viral stage;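 negative = less Venus signal; first of two replicates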
* hit, by the source's call; u = inconclusive; x = no result given; & = joins results of further samples. A portion of the library; rates above refer to the full screens.

Results follow in this order: Vaccinia inh Venus	Vaccinia inh
O=C(c1cccnc1)N1C[C@@H]2[C@H](c3ccccc31)[C@H](CO)N2C(=O)Nc1ccccc1
→ 6	2
CO[C@@H]1CN(C)C(=O)c2cc(NC(=O)Nc3ccc4c(c3)OCO4)ccc2OC[C@H](C)NC[C@@H]1C
→ 5	11
Cc1noc(C)c1NC(=O)N(C)C[C@@H]1Oc2ccc(NC(=O)Cc3ccccc3)cc2C(=O)N([C@@H](C)CO)C[C@H]1C
→ 10	13
CNC[C@H]1Oc2ccc(NC(=O)Cc3cn(C)c4ccccc34)cc2CC(=O)N([C@@H](C)CO)C[C@H]1C
→ 0	-3
CCCC#Cc1ccc2c(c1)O[C@@H](CN(C)S(=O)(=O)c1cccc(F)c1)[C@@H](C)CN([C@@H](C)CO)S2(=O)=O
→ -13	-15
COc1ccc(NC(=O)Nc2ccc3c(c2)C(=O)N([C@H](C)CO)C[C@@H](C)[C@H](CN(C)C(=O)Nc2cccc4ccccc24)O3)cc1
→ 25	15
CO[C@H]1CN(C)C(=O)c2cc(C#N)ccc2OCC[C@@H]2CC[C@@H](OC)[C@@H](CN(C)C(=O)[C@H]1C)O2
→ 5	7
C[C@@H]1CN([C@@H](C)CO)C(=O)Cc2cc(NS(=O)(=O)c3ccc(Cl)cc3)ccc2O[C@@H]1CN(C)Cc1ccc(C(F)(F)F)cc1
→ x	u
COc1ccc2c3c([nH]c2c1)[C@H](CO)N(Cc1cccc(F)c1)CC31CN(Cc2ccccn2)C1
→ 7	9
COCCNC(=O)C[C@@H]1C[C@@H]2c3cc(NS(C)(=O)=O)ccc3O[C@@H]2[C@H](CO)O1
→ 1	3
CS(=O)(=O)N1[C@H](CO)[C@H](c2ccccc2-c2ccc(F)cc2)[C@@H]1C#N
→ -6	-7
Cc1noc(C)c1NC(=O)Nc1cccc2c1O[C@H](CN(C)Cc1ccc(C(=O)Nc3ccccc3N)cc1)[C@@H](C)CN([C@H](C)CO)C2=O
→ 0	8
OC[C@H]1CC[C@@H]2O[C@H](CCc3ccc(C#CCc4ccccc4)cc3)[C@@H](n3cc(-c4ccccc4)nn3)C[C@@H]2O1
→ 5	-9
COc1cccc(S(=O)(=O)N(C)C[C@H]2Oc3cc(C#CCC(C)C)ccc3S(=O)(=O)N([C@H](C)CO)C[C@H]2C)c1
→ -27	-33
COCCNC(=O)C[C@H]1C[C@@H]2c3cc(NC(=O)Nc4ccc(C(F)(F)F)cc4)ccc3O[C@@H]2[C@@H](CO)O1
→ -17	-19
Cc1noc(C)c1S(=O)(=O)Nc1ccc2c(c1)C(=O)N([C@@H](C)CO)C[C@H](C)[C@H](CN(C)Cc1ccc(C(F)(F)F)cc1)OCCCC[C@@H](C)O2
→ x	u
O=C(C[C@@H]1CC[C@@H](NC(=O)C2CCOCC2)[C@H](CO)O1)NCC1CC1
→ 23	28
C[C@@H]1CN([C@H](C)CO)C(=O)c2cc(NS(=O)(=O)c3cn(C)cn3)ccc2O[C@@H]1CN(C)C(=O)Nc1ccccc1
→ 1	13
O=C(Cc1ccncc1)NCC[C@@H]1CC[C@@H](NS(=O)(=O)c2ccccc2Cl)[C@@H](CO)O1
→ 2	-4
C[C@@H]1CN([C@H](C)CO)C(=O)c2cc(C#CC3(O)CCCC3)cnc2O[C@@H]1CN(C)CC1CC1
→ -24	-9
COc1ccc(CN(C)C[C@H]2OCCCC[C@@H](C)Oc3ccc(NC(=O)c4ccccc4)cc3C(=O)N([C@H](C)CO)C[C@@H]2C)cc1
→ -19	-22
C[C@@H]1CN([C@@H](C)CO)C(=O)c2cc(C#CCN(C)C)cnc2O[C@H]1CN(C)C(=O)CN1CCOCC1
→ 17	37
C[C@H](CO)N1C[C@H](C)[C@H](CN(C)C(=O)Cc2ccncc2)Oc2cc(C#CC3(O)CCCC3)ccc2S1(=O)=O
→ -4	-3
CCC(=O)N(C)C[C@@H]1Oc2ncc(C#Cc3ccc(OC)cc3)cc2C(=O)N([C@H](C)CO)C[C@@H]1C
→ -1	12
COc1ccc(NC(=O)N(C)C[C@@H]2Oc3c(NC(=O)Nc4ccc(F)cc4)cccc3C(=O)N([C@@H](C)CO)C[C@H]2C)cc1
→ -1	0
C[C@H](CO)N1C[C@H](C)[C@@H](CN(C)Cc2ccc(Oc3ccccc3)cc2)Oc2ccc(NC(=O)Nc3ccc(F)cc3)cc2CC1=O
→ -2	-11
Cn1cnc(CCNC(=O)C[C@@H]2CC[C@H]3[C@@H](COC[C@H](O)CN3C(=O)Nc3ccc(F)cc3)O2)c1
→ 7	9
O=C(C1CCCC1)N1CC[C@@H]2[C@H](CO)Nc3ccc(C4=CCCCC4)cc3[C@@H]21
→ x	u
C[C@@H]1CN([C@@H](C)CO)C(=O)c2cc(Br)cnc2O[C@@H]1CN(C)C(=O)C1CCCCC1
→ 0&0	9&-2
COc1cccc(S(=O)(=O)N2CCCCN3[C@H](CO)[C@H](c4ccc(-c5cccnc5)cc4)[C@H]3C2)c1
→ -45	-30
CCCC(=O)Nc1ccc2c(c1)OC[C@H](C)N(Cc1cncnc1)C[C@H](C)[C@H](OC)CN(C)C2=O
→ -1	-6
C[C@H](O)C#Cc1cnc2c(c1)C(=O)N([C@@H](C)CO)C[C@H](C)[C@H](CN(C)C(=O)CN(C)C)O2
→ 5	14
CCCNC(=O)N[C@@H]1C=C[C@@H](CC(=O)NC2CCCCC2)O[C@@H]1CO
→ -4	-9
CCCNC(=O)N[C@H]1C=C[C@@H](CC(=O)N2CCN(C)CC2)O[C@@H]1CO
→ 5	-4
Cc1ccccc1-c1ccc2c(c1)O[C@H](CN(C)C(=O)C1CC1)[C@@H](C)CN([C@H](C)CO)S2(=O)=O
→ -13	-10
C/C=C/c1ccc([C@@H]2[C@@H](CO)N(CC3CCCC3)C23CN(S(=O)(=O)CC)C3)cc1
→ 1	-17
COc1cccc(CN2CCC3(CC2)CN(C(=O)C2CC2)[C@H](CO)c2[nH]c4cc(OC)ccc4c23)c1
→ x	u
C[C@H](CO)N1C[C@H](C)[C@@H](CN(C)Cc2ccncc2)Oc2ncc(/C=C/c3ccccc3)cc2C1=O
→ -6	-9
O=C(C1CCOCC1)N1CC(=O)N2[C@@H](CO)[C@H](c3ccc(C#CC4CCCC4)cc3)[C@@H]2C1
→ 5	8
C[C@H]1CN([C@@H](C)CO)C(=O)c2cccc(NS(C)(=O)=O)c2O[C@@H]1CN(C)C(=O)Nc1ccc(C(F)(F)F)cc1
→ 2	3
Cc1noc(C)c1NC(=O)N(C)C[C@@H]1OCCCC[C@H](C)Oc2ccc(NC(=O)Nc3ccc(C(F)(F)F)cc3)cc2C(=O)N([C@H](C)CO)C[C@@H]1C
→ -16	-26
Cc1noc(C)c1NC(=O)Nc1ccc2c(c1)C(=O)N([C@@H](C)CO)C[C@@H](C)[C@@H](CN(C)S(=O)(=O)c1cccs1)O2
→ 13	16
CC(C)NC(=O)N[C@@H]1C=C[C@H](CC(=O)O)O[C@@H]1CO
→ 14	8
COc1ccc(-c2ccccc2[C@H]2[C@@H](C#N)N(C(=O)NC3CCCC3)[C@H]2CO)cc1
→ 3	2
COCC(=O)N1CC2(C1)[C@H](c1ccc(-c3ccc(C)cc3)cc1)[C@H](CO)N2C(C)=O
→ 2	-7

Single entries from above.
Vaccinia inh Venus with CCCNC(=O)N[C@@H]1C=C[C@@H](CC(=O)NC2CCCCC2)O[C@@H]1CO = -4
Vaccinia inh with CCCNC(=O)N[C@H]1C=C[C@@H](CC(=O)N2CCN(C)CC2)O[C@@H]1CO = -4
Vaccinia inh Venus with CC(C)NC(=O)N[C@@H]1C=C[C@H](CC(=O)O)O[C@@H]1CO = 14
Vaccinia inh with C[C@H](O)C#Cc1cnc2c(c1)C(=O)N([C@@H](C)CO)C[C@H](C)[C@H](CN(C)C(=O)CN(C)C)O2 = 14
Vaccinia inh Venus with CCCC(=O)Nc1ccc2c(c1)OC[C@H](C)N(Cc1cncnc1)C[C@H](C)[C@H](OC)CN(C)C2=O = -1
Vaccinia inh Venus with C/C=C/c1ccc([C@@H]2[C@@H](CO)N(CC3CCCC3)C23CN(S(=O)(=O)CC)C3)cc1 = 1

Single records (already shown). Order of values: Vaccinia inh Venus	Vaccinia inh
`C[C@@H]1CN([C@@H](C)CO)C(=O)c2cc(C#CCN(C)C)cnc2O[C@H]1CN(C)C(=O)CN1CCOCC1` across the screens: 17	37
`COc1ccc(CN(C)C[C@H]2OCCCC[C@@H](C)Oc3ccc(NC(=O)c4ccccc4)cc3C(=O)N([C@H](C)CO)C[C@@H]2C)cc1` across the screens: -19	-22
`O=C(C1CCOCC1)N1CC(=O)N2[C@@H](CO)[C@H](c3ccc(C#CC4CCCC4)cc3)[C@@H]2C1` across the screens: 5	8
`CO[C@@H]1CN(C)C(=O)c2cc(NC(=O)Nc3ccc4c(c3)OCO4)ccc2OC[C@H](C)NC[C@@H]1C` across the screens: 5	11

The list goes on.
Results follow in this order: Vaccinia inh Venus	Vaccinia inh
CC(C)NC(=O)N(C)C[C@H]1Oc2ccc(NC(=O)C3CC3)cc2C(=O)N([C@@H](C)CO)C[C@H]1C
→ 5	4
COc1ccc(NC(=O)N(C)C[C@H]2OCCCC[C@@H](C)Oc3ccc(NC(=O)Cc4ccccc4)cc3C(=O)N([C@@H](C)CO)C[C@@H]2C)cc1
→ -30	-33
COCC#Cc1ccc(CC[C@H]2O[C@H]3CC[C@H](CO)O[C@H]3C[C@@H]2n2cc(C3CC3)nn2)cc1
→ -2	0
C[C@H]1CN([C@@H](C)CO)C(=O)c2cc(Br)cnc2O[C@@H]1CN(C)C(=O)Nc1ccc(C(F)(F)F)cc1
→ 1	2
CCCC#Cc1cnc2c(c1)C(=O)N([C@@H](C)CO)C[C@@H](C)[C@H](CN(C)C(=O)c1ccc3c(c1)OCO3)O2
→ 0	-8
C[C@@H]1CCCCO[C@H](CN(C)C(=O)Nc2ccccc2)[C@H](C)CN([C@@H](C)CO)C(=O)c2cc(NS(=O)(=O)c3ccccc3)ccc2O1
→ -25	-22
COc1ccc(S(=O)(=O)N(C)C[C@@H]2OCCCC[C@@H](C)Oc3ccc(NC(=O)Nc4c(C)noc4C)cc3C(=O)N([C@H](C)CO)C[C@@H]2C)cc1
→ 6	13
C[C@H](CO)N1C[C@H](C)[C@H](CN(C)Cc2ccc(-c3ccccc3)cc2)Oc2ccc(NS(=O)(=O)c3cn(C)cn3)cc2C1=O
→ 3	-3
C[C@@H]1CN([C@@H](C)CO)C(=O)Cc2cc(NS(=O)(=O)c3ccc(F)cc3)ccc2O[C@H]1CN(C)S(=O)(=O)c1cccs1
→ -3	0
C[C@@H]1CN([C@H](C)CO)C(=O)c2cc(NS(=O)(=O)c3cccs3)ccc2O[C@@H](C)CCCCO[C@@H]1CN(C)S(=O)(=O)c1ccccc1
→ -10	-14
C[C@@H]1CCCCO[C@H](CN(C)Cc2ccc(Cl)c(Cl)c2)[C@@H](C)CN([C@@H](C)CO)C(=O)c2cc(NC(=O)c3ccccc3)ccc2O1
→ x	u
Cc1ccc(S(=O)(=O)Nc2ccc3c(c2)C(=O)N([C@H](C)CO)C[C@H](C)[C@@H](CN(C)Cc2ccc4c(c2)OCO4)OCCCC[C@H](C)O3)cc1
→ x	u
C[C@@H]1CN([C@@H](C)CO)C(=O)c2cc(NC(=O)CCN3CCOCC3)ccc2O[C@@H]1CN(C)S(=O)(=O)c1ccccc1
→ -6	-6
C[C@@H]1CN([C@@H](C)CO)C(=O)c2ccccc2-c2ccccc2CO[C@H]1CN(C)C(=O)[C@H](Cc1ccccc1)N(C)C
→ 1	7
Cc1noc(C)c1S(=O)(=O)Nc1ccc2c(c1)C(=O)N([C@@H](C)CO)C[C@@H](C)[C@@H](CN(C)C(=O)c1ccccc1)OCCCC[C@@H](C)O2
→ 19	36
CN(C)CC#Cc1ccc([C@@H]2[C@H]3CN(C(=O)c4ccc(F)cc4)CC(=O)N3[C@H]2CO)cc1
→ 3	-4
CCCNC(=O)Nc1ccc2c(c1)OC[C@@H](C)N(Cc1ccc(-c3ccccn3)cc1)C[C@@H](C)[C@H](OC)CN(C)C2=O
→ -12	-18
C[C@@H]1CN([C@H](C)CO)C(=O)c2cccc(NC(=O)Nc3ccc(C(F)(F)F)cc3)c2O[C@@H]1CN(C)C(=O)Nc1cccc2ccccc12
→ x	u
COC(=O)C[C@@H]1CC[C@H](NC(=O)c2ccccc2)[C@@H](CO)O1
→ 15	3
Cc1ccc(S(=O)(=O)Nc2cccc3c2O[C@@H](CN(C)S(=O)(=O)c2ccc(C)cc2)[C@@H](C)CN([C@@H](C)CO)C3=O)cc1
→ -6	-10
COc1ccccc1CN1C[C@@H](C)[C@@H](OC)CN(C)C(=O)c2ccc(NC(C)=O)cc2OC[C@H]1C
→ -7	0
O=C(C[C@@H]1C[C@H]2c3cc(NC(=O)c4cccnc4)ccc3O[C@H]2[C@H](CO)O1)NCc1cc(F)ccc1F
→ -5	1
C[C@@H]1CN([C@H](C)CO)C(=O)c2cc(C#CCc3ccccc3)cnc2O[C@H]1CN(C)C(=O)Cc1cccnc1
→ 13	20
COCC#Cc1cnc2c(c1)C(=O)N([C@@H](C)CO)C[C@H](C)[C@H](CN(C)C(=O)C1CC1)O2
→ 27	10
C[C@@H]1CN([C@H](C)CO)C(=O)c2cc(NS(C)(=O)=O)ccc2O[C@H]1CN(C)S(=O)(=O)c1ccc(Cl)cc1
→ -2	-4
CCC(=O)Nc1ccc2c(c1)C(=O)N(C)[C@H]1CC[C@@H](CC(=O)NCCCN(C)C)O[C@H]1CO2
→ 13	5
C[C@H](CO)N1C[C@H](C)[C@@H](CN(C)Cc2ccc3c(c2)OCO3)Oc2ccc(NC(=O)Cn3cnnn3)cc2CC1=O
→ 9	20
C[C@@H]1CN([C@@H](C)CO)C(=O)c2cc(NS(=O)(=O)c3ccccc3)ccc2O[C@@H](C)CCCCO[C@@H]1CN(C)C(=O)CCC(F)(F)F
→ -17	-22
COc1ccc(S(=O)(=O)Nc2ccc3c(c2)C(=O)N([C@@H](C)CO)C[C@@H](C)[C@H](CN(C)C(=O)Nc2c(C)noc2C)OCCCC[C@@H](C)O3)cc1
→ 18	27
